# gsp ag: qHTS for Agonist of gsp, the Etiologic Mutation Responsible for Fibrous Dysplasia/McCune-Albright Syndrome: qHTS. gsp mutant cells, cAMP HTRF, 30 min; control for the full effect not named in the record. Potency, µM (top dose mostly 76.9 µM), inactives show top-dose activation (cAMP increase), hits mostly activators. 340,000 tested, 0.13% active; active = well fitted activation curve with a large enough effect; inconclusive = small, poorly fitted or top-dose-only effect, or another doubt; inactive = no such curve, though single readings can be large or run the other way; cell line not stated here;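 also: phosphodiesterase inhibitor Ro 20-1724 added with compounds to block cAMP breakdown; potency is read from the fitted curve at half-maximal effect; nearly all actives have a fitted effect of over 60% in size; about a fifth of the inactives were tested at one dose only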
#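 Cells stably selected in G418 were plated at 2000/well, grown 16-24 hr, then given compounds in DMSO with the PDE inhibitor […] (300 uM solution added) for 30 min at 37C; cAMP was read by HTRF.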
# ClpP mod: qHTS Assay for Activators of ClpP; purified B. subtilis ClpP, FRET peptide cleavage, 20 min; ATP-dependent Clp protease proteolytic subunit (Bacillus subtilis (strain 168)), P80244; 340,000 tested, 1.9% active; Potency, µM (doses to about 57.5 µM), for inactives: at the top dose activity change, negative = active; active = well fitted falling curve with a large enough effect; inconclusive = small, poorly fitted or top-dose-only effect; inactive = no such curve, though single readings can be large or run the other way; also: potency is read from the fitted curve at half-maximal effect; the source files actives as falling curves though it sought activators and does not explain the sign; nearly all actives have a fitted effect of over 65% in size; many hits overshoot -100%
# Target sequence (P80244 whole entry, looked up): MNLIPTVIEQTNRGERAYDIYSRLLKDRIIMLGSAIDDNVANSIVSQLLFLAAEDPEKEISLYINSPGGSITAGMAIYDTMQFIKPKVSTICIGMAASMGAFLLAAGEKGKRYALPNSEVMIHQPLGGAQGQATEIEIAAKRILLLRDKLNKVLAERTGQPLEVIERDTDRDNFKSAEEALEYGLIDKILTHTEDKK
#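 FRET quenching reversal measured ClpP activation: 10 microg/mL B. subtilis ClpP at pH 8 with the FRET-FV decapeptide, read at 430 nm after 320 nm excitation. The 20-min minus 0-min signal was scaled between DMSO/no-enzyme wells and ADEP (5.8 microM final).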
# Sfp inh: qHTS Assay for Inhibitors of Bacillus subtilis Sfp phosphopantetheinyl transferase (PPTase) | 4'-phosphopantetheinyl transferase ffp (Bacillus subtilis), Q9F4F7 | Potency, µM, for the others: max response, negative = inhibition, usual class: inhibitors | 310,000 tested, 3.5% active | Biochemical Sfp PPTase activity, qHTS; active = well fitted inhibition curve with a large enough effect; inconclusive = small, poorly fitted or top-dose-only effect, or another doubt; inactive = no such curve, though single readings can be large or run the other way;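 also: the enzyme is Sfp with the accession as filed and its product quenches rhodamine fluorescence; potency is read from the fitted curve at half-maximal effect; 0% = enzyme reaction without inhibitor and -100% = no enzyme wells; top concentration of the series not given in the record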
#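 Buffer: 50 mM Hepes-Na pH 7.6, 10 mM MgCl2, 0.01% Nonidet P-40, 0.01% BSA. Enzyme 15 nM, pre-exposed to compound 15 min; substrates then added and fluorescence change tracked over 30 min.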
# Menin MLL FP FL: qHTS Assay for Inhibitors Targeting the Menin-MLL Interaction in MLL Related Leukemias: Competition With Fluorescein Labeled MLL-derived Peptide. Fluorescence polarization, fluorescein-MLL peptide displacement from menin. FP activity change, % at 61.4 µM. 290,000 tested, under 10 active; inconclusive = falling polarisation curve, or a change in total fluorescence; inactive = total fluorescence flat and polarisation flat or rising; no compound was filed as active; the % refers to the polarisation; negative = inhibition;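 also: % of control where 0% means no effect; inhibitors lower the polarisation; unlabelled MLL peptide was the positive control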
# D2 agonist: Beta-Arrestin HTS for Positive Allosteric Modulators of the Human D2 Dopamine Receptor: Agonists; 360,000 tested, 0.084% active; AID 624465, 2012; DiscoveRx PathHunter D2 beta-arrestin, luminescence, 90 min; 100% = 57 uM dopamine signal; activation, % (no concentration beside the values); D(2) dopamine receptor (Homo sapiens), P14416; in the data active = activation above about 40%; inconclusive = about 15% to 40%; inactive = below about 15%; also: compound concentration not given in the record; the text of the record calls up to 30% inactive
# Target sequence (P14416 whole entry, looked up): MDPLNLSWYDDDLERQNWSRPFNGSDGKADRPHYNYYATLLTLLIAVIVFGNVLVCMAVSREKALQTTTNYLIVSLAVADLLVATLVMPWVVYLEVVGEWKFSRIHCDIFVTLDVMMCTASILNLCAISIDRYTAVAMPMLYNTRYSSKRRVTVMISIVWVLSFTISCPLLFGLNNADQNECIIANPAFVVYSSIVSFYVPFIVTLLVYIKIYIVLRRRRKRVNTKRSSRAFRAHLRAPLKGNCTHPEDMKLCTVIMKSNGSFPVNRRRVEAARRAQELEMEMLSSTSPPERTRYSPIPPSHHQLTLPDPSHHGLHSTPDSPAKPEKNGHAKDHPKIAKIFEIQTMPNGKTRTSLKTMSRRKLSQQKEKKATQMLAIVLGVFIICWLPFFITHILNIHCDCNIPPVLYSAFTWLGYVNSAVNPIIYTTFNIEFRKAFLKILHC
#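 Agonist mode: compounds alone added to overnight-plated D2 PathHunter cells for 90 min at 37 C, with 57 uM final dopamine (EC100) defining full response. Beta-arrestin recruitment detected by chemiluminescent reagent, read after 1 h at ambient temperature.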
# PINK1 expr mod: A Quantitative High throughput Screen to Identify Chemical Modulators of PINK1 Expression; PINK1 immunofluorescence, high-content cytometry, 24 h; Potency, µM (highest dose often 76.6 µM), without a hit: at the highest dose activation (PINK1 increase), actives largely listed as activators; 410,000 tested, 0.2% active; AID 624263, 2012; active = well fitted activation curve with a large enough effect; inconclusive = small, poorly fitted or top-dose-only effect; inactive = flat fitted curve, though single readings scatter; cell line not stated here;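 also: potency is read from the fitted curve at half-maximal effect; % of control where 0% means no effect; nearly all actives have a fitted effect of over 65% in size; a mitochondrial uncoupler was the plate control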
#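 Cells are seeded, rested 12 hours, then given compound at five concentrations or DMSO for 24 hours. After fixation, blocking and antibody staining, PINK1 amount and mitochondrial localization are scored; CCCP serves as control.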
# gsp antag: qHTS for Antagonists of gsp, the Etiologic Mutation Responsible for Fibrous Dysplasia/McCune-Albright Syndrome: qHTS; AID 624288, 2012; gsp-mutant cells, cAMP HTRF, 30 min; control for the full effect not named in the record; Potency, µM (doses to about 76.9 µM), without a hit: at the highest dose activity change, negative = inhibition, usual class: inhibitors; 340,000 tested, 0.4% active; active = falling curve of any shape with a large fitted effect; inconclusive = falling curve, mostly with a smaller effect; inactive = flat or rising curve; cell line not stated here;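 also: intracellular cAMP measured with PDE inhibitor Ro 20-1724 present during compound exposure; potency is read from the fitted curve at half-maximal effect; % is scaled to controls: 0 for no effect and ±100 for the full control effect; nearly all actives have a fitted effect of over 65% in size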
#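 HTRF cAMP read-out (cAMP-d2 plus anti-cAMP antibody-K in lysis buffer, 30 min RT). Before lysis, cells are exposed to compounds with […] for 30 min at 37C in DPBS containing Ca/Mg, BSA and Tween 20.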
# * hit, by the source's call; ? = inconclusive; . = not tested or not shown; ! = not active in a repeat; [ ] = remark or other dose.
# Values in the order: gsp ag	ClpP mod	Sfp inh	Menin MLL FP FL	D2 agonist	PINK1 expr mod	gsp antag
> COc1ccc(OCc2nnc3n2N=C(c2ccc(C)cc2)CS3)cc1
→ -94%[inhibitor]	0.5%	6%	1.2	2.0	0.2%	-17%
> Cc1ccc(C(=O)NCC(=O)OCC(=O)NCCc2ccccc2)s1
→ 1%[15.4 µM]	.	9%	-1.1	-3.4	3.1%	9%
> CCOC(=O)c1cc2occc2n1Cc1ccc(F)cc1
→ -23%	-1.1%	-18%	5.0	-3.6	0.1%	-13%
> O=[N+]([O-])c1ccccc1/C=C/C=N/n1c(-c2ccc(Cl)cc2)n[nH]c1=S
→ 1%	-1.9%	-10%	2.9	15	0.1%	0%
> O=C(NC1CCCCC1)c1ccc(COc2ccccc2)o1
→ 13%[15.4 µM]	.	.	.	1.8	8.7%	3%
> CCOC(=O)CN1C(=O)/C(=C/c2cccc(Br)c2)Oc2ccccc21
→ 1%	4.6%	10%	7.1	-7.3	3.1%	6%
> COc1ccc2nc(NC(=O)c3ccccc3[N+](=O)[O-])sc2c1
→ 9%	-0.7%	-7%	-0.6	-4.4	8.1%	-9%
> CCOC(=O)C1(C)CCCN(C(=O)C(c2ccccc2)c2ccccc2)C1 (stereo unspecified)
→ .	-0.4%	.	.	-0.7	1.6%	.
> CCCSC1=N/C(=C\c2ccc3c(c2)OCO3)C(=O)S1
→ -2%	-3.1%	-6%	2.1	-4.7	0.0%	5%
> CSc1ccccc1C(=O)C1CCCN(C(=O)NC(C)C)C1 (stereo unspecified)
→ 18%	.	-2%	-0.4	0.4	-0.9%	5%
> COCCCN1C(=O)C(CC(=O)NC2CC2)CC(C(=O)N(C(C)C)C(C)C)=C1C (stereo unspecified)
→ .	1.7%	.	.	-2.9	0.0%	.
> CCN(C(=O)COC(=O)CSc1ccc(C(N)=O)cc1[N+](=O)[O-])C1CCCCC1
→ -31%[inhibitor]	1.1%	4%	-1.2	-5.0	0.1%	?
> Cc1ccccc1Oc1nnc(-c2cccs2)c2ccccc12
→ 8%[15.4 µM]	.	-10%	0.6	-6.1	5.0%	25µM*
> O=C(OCN1C(=O)c2ccccc2C1=O)c1cccc(OC(F)F)c1
→ 13%[15.4 µM]	.	2%	1.4	-5.9	1.1%	-1%
> O=C(Nc1cccc(-c2nc3cccnc3s2)c1)c1ccc(Cl)nc1
→ 3%	.	-21%	3.4	1.5	7.5%	-14%
> O=C(NC1CCCC1)C(c1ccncc1)N(Cc1cccs1)C(=O)c1csnn1 (stereo unspecified)
→ -7%	0.0%	20µM*	?	-1.8	0.5%	1%
> C=C(C)Cn1c(CCNC(=O)c2ccco2)nc2ccccc21
→ -34%[inhibitor]	.	22%	6.8	-2.8	-3.3%	1%
> Cc1ccsc1/C=C1/CN(C)Cc2c1nc1ccccc1c2C(=O)O
→ -6%[15.4 µM]	.	?	-1.2	2.2	4.1%	-18%
> Cc1ccc(-n2nc(C)c3c(C)c(CCC(=O)Nc4ccc(CN5CCCC5)cc4)c(C)nc32)cc1
→ ?	.	-22%	2.1	1.1	-1.9%	-2%
> N#CCCCSc1ncccc1-c1nc2ccccc2[nH]1
→ -4%	-30%	3%	-0.1	-0.1	1.2%[38.3 µM]	-7%
> COc1cc(C2NC(C(=O)O)Cc3c2[nH]c2ccccc32)cc(OC)c1OC (stereo unspecified)
→ 1%	-6.6%	71µM*!	?	-0.8	5.9%[38.3 µM]	9%
> COc1ccc(OCCCC(=O)NCCc2ccccc2)cc1
→ 11%	-0.6%	5%	3.1	-1.3	0.6%	9%
> COc1ccc(NC(=O)CN(C2CCCCC2)S(C)(=O)=O)cc1Cl
→ -13%	3.1%	7%	0.9	-0.5	-0.5%	?
> Cc1cc(=O)[nH]c(SCC(=O)Nc2nnc(SCc3ccccc3)s2)n1
→ 11%[15.4 µM]	.	2%	1.1	7.2	-1.3%	-29%
> O=C(NCCc1ccccc1)C1CCC(=O)N(Cc2cccc(C(F)(F)F)c2)C1 (stereo unspecified)
→ 9%	1.1%	5%	.	-2.8	0.1%	5%
> Cc1ccc(S(=O)(=O)N2CCN(CC(=O)N/N=C/c3ccc(Br)s3)CC2)cc1
→ -29%	0.1%	3%	-0.9	2.0	-0.2%	-18%
> Cc1nn(-c2ccccc2)c(C)c1C(=O)OC(C)C(=O)NC1CCCCC1C (stereo unspecified)
→ 6%	0.6%	.	.	-1.1	0.9%	-11%
> CCCNC(=O)C1CCC(CNS(=O)(=O)c2cccc3nsnc23)CC1 (stereo unspecified)
→ 26%	-2.3%	6%	.	-4.9	-1.4%	0%
> COc1ccc([C@@H]2[C@@H]3C(=O)N(C(C)(C)C)C(=O)[C@@H]3[C@]3(Cc4ccc(Cl)cc4)C(=O)N(c4cccc(C)c4)C(=O)N23)cc1
→ -20%	-2.1%	13%	-2.3	-2.2	-0.6%	3%
> COc1ccc(/C=C/c2cc(C(=O)O)c3ccccc3n2)cc1
→ 0%[15.4 µM]	.	7%	2.2	-5.7	-0.3%	2%
> COc1ccc(C(CNC(=O)c2ccc(S(=O)(=O)Nc3ccccc3C)cc2)N2CCOCC2)cc1 (stereo unspecified)
→ 1%	1.1%	.	.	-2.2	0.6%	-2%
> O=C(Nc1ccc(F)cc1)N1CCN(C(=O)C2CCCO2)CC1 (stereo unspecified)
→ 1%	1.8%	9%	.	-1.9	2.6%	10%
> Cc1ccc(-n2cc(CNCCn3nc(C)cc3C)c(-c3ccc(F)cc3)n2)cc1
→ 18%	.	45µM*	0.7	-0.9	-4.3%	-20%
> CN(c1ccccc1)S(=O)(=O)c1ccc(C(=O)Nc2nnc(C3CC3)s2)cc1
→ 7%[15.4 µM]	.	16%	-5.8	-2.8	-1.6%	-9%
> CCC(=O)N1CCN(c2ccc(NC(=O)c3c(F)c(F)c(OC)c(F)c3F)cc2)CC1
→ -5%	-0.2%	3%	0.3	-0.8	?	0%
> Cc1cc(NC(=O)CSCC(=O)N(C)Cc2ccc(Cl)c(Cl)c2)no1
→ 0%	1.2%	7%	.	1.7	-0.7%	-8%
> COC(=O)C1=C(C)NC(C)=C(C(=O)OC)C1c1ccc(C)o1
→ 6%	.	17%	-1.2	2.4	0.9%	10%
> O=C(Nc1ccccc1)Nc1ccc2nnsc2c1
→ -9%[15.4 µM]	1.3%	4%	4.5	0.4	?	-18%
> COc1ccc(C(=O)NCc2nnc(SCC(=O)N3CCCC3)o2)cc1OC
→ 0%	-7.1%	-4%	0.0	0.5	1.0%	7%
> O=C(COc1ccccc1)N1CCN(c2ncnc3c2cnn3-c2ccccc2)CC1
→ -24%	-1.4%	-12%	3.5	-1.4	8.7%	?
> COCCn1c(SCCN2CCOCC2)nc2c1c(=O)[nH]c(=O)n2C
→ 2%	-1.1%	13µM*	-0.9	-1.7	2.2%	2%
> C=CCn1c(SCC(C)=O)nc2sc3c(c2c1=O)CCC3
→ -22%	1.0%	-4%	1.4	-2.4	2.4%	9%
> OC(CSc1c(Cl)cccc1Cl)CN1CCN(c2ccccc2F)CC1 (stereo unspecified)
→ -27%	-0.4%	-7%	2.5	?	0.3%[38.3 µM]	-13%
> O=C(OCn1ncc(Cl)c(Cl)c1=O)c1cccc(C(F)(F)F)c1
→ -39%	2.0%	13%	0.5	-3.5	-4.4%	11%
> COc1cccc(C(C)N(C)Cc2nc(COc3ccccc3)no2)c1 (stereo unspecified)
→ -22%	-0.8%	2%	3.3	-2.3	-1.1%	1%
> C[C@@H]1CN([C@H](C)CO)C(=O)CCCn2nncc2CO[C@H]1CN(C)C(=O)Nc1cccc(Oc2ccccn2)c1
→ -26%	-3.5%	.	.	8.2	-1.6%	.
> Nc1nc2c(ncn2C2C[C@H](O)[C@@H](CO)O2)c(=O)[nH]1 (stereo partly specified)
→ .	-1.1%	.	.	3.7	-0.9%	8%
> C[C@H](C(=O)O)c1n[nH]c(=O)c2ccccc12
→ -9%	-3.4%	17%	-0.4	-1.3	-5.0%	2%
> COc1ccccc1C(=O)NCC(=O)N1CCN(c2ncccn2)CC1
→ 2%	-0.2%	.	.	-3.9	0.6%	10%
> O=C(c1cc2ccccc2o1)N1CCN(C/C=C/c2ccccc2)CC1
→ ?	-2.1%	-13%	-1.5	-3.0	-0.2%	-19%

# Next section
# Values in the order: gsp ag	ClpP mod	Sfp inh	Menin MLL FP FL	D2 agonist	PINK1 expr mod	gsp antag
> COCCn1c(SCC(=O)Nc2cccc(S(N)(=O)=O)c2)nc2cc(Cl)ccc2c1=O
→ -3%[15.4 µM]	.	0%	-3.8	-4.1	2.0%	-17%
> COCC(=O)N1CCC2(CC1)CN(C(=O)Nc1ccc(OC)cc1)C2
→ .	.	14%	5.2	.	0.2%	.
> c1ccc2c(Cn3ccnc3)c[nH]c2c1
→ 2%	-0.8%	15%	-0.9	-2.0	4.7%[38.3 µM]	13%
> Clc1ccccc1-c1nccc(NCCN2CCOCC2)n1
→ .	.	13%	-5.3	.	-1.1%	.
> CCCn1c(SCC(=O)Nc2nnc(C)s2)nnc1C1CC1
→ 8%	0.3%	5%	.	-2.0	0.5%	2%
> COc1cc(C(=O)N2CCN(c3ccccc3F)CC2)ccc1OCC(=O)N1CCOCC1
→ 10%	0.2%	.	.	3.6	2.1%	2%
> OCCC1CN(Cc2cccc3nonc23)CCN1C1CCCCC1 (stereo unspecified)
→ -2%	.	11%	-4.1	-6.3	-1.4%	7%
> O=C(c1noc2c1CCCC2)N1CCN(c2ccccc2)CC1
→ 4%	1.2%	2%	3.6	6.1	9.2%[38.3 µM]	-2%
> Cc1cc(NC(=O)COC(=O)COc2ccc(Cl)cc2C)c([N+](=O)[O-])cc1C
→ -28%	?	-6%	-0.7	-4.5	-1.2%	4%
